Source: PubChem BioAssay (National Center for Advancing Translational Sciences (NCATS))
VDR inh: inhibitors of human vitamin D receptor. P11473. 400,000 tested, 0.93% active. Potency, µM, inactives show max response, negative = inhibition, actives largely listed as inhibitors. VDR-SRC2-3 peptide fluorescence polarization, 2 h; active = well fitted inhibition curve with a large enough effect; inconclusive = small, poorly fitted or top-dose-only effect, or another doubt; inactive = no such curve, though single readings can be large or run the other way; also: series mostly up to about 120 µM
Target sequence (P11473 whole entry, looked up): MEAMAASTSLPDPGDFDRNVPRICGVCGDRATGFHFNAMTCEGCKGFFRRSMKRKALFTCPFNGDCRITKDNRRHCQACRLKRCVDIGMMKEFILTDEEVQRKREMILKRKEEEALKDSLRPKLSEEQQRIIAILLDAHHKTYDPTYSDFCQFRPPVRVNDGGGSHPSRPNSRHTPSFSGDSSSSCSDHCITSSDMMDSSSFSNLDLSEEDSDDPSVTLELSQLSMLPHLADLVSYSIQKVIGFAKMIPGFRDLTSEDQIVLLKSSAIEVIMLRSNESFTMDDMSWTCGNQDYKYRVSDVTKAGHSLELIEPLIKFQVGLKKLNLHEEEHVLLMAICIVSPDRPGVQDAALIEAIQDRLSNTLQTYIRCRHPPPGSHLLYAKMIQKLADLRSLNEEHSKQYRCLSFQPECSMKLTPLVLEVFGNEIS
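Inhibition of the VDR/SRC2-3 peptide interaction is quantified by fluorescence polarization. Compounds (23 nl, pintool) incubate with the reagents for 2 hours at ambient room temperature.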
Starred values were filed as active, the others as inactive; ? = inconclusive; [ ] = remark or other dose. % is scaled to controls: 0 for no effect and ±100 for the full control effect; potency is read from the fitted curve at half-maximal effect.

SMILES	VDR inh
CCN1CCN(C(=O)CCc2nnc3ccc(N4CCN(c5cccc(OC)c5)CC4)nn23)CC1	-12%
Cc1cc(=O)[nH]c(SCC(=O)c2ccc(O)c(O)c2)n1	19%
Fc1ccccc1N1CCN(c2ncnc3[nH]ncc23)CC1	1%
COc1ccc(NC(=O)c2cc(C)on2)cc1	-16%
CN(NC(=O)c1ccc(Cl)cc1)c1ncc(C(F)(F)F)cc1Cl	-2%
COCCNC(=O)c1ccccc1-c1nc(-c2ccccc2OC)no1	-1%
CCOc1cc(C(=O)Nc2ccc3oc(-c4ccc(CC)cc4)nc3c2)cc(OCC)c1OCC	-11%
O=C(N/N=C/c1ccccc1O)C1CC(=O)N(c2ccc(F)cc2)C1 (configuration not stated)	-5%
CCOc1ccc(NC(=O)CN2C(=O)CC(C)Sc3ccccc32)cc1 (configuration not stated)	2%
CCS(=O)(=O)N1CCC(C(=O)c2ccc(Cl)cc2)CC1	-10%
CCOC(=O)c1ccc(S(=O)(=O)Nc2ccc3cn[nH]c3c2)cc1	7%
COc1cc(/C=C/C(=O)NNC(=O)c2cccc(S(=O)(=O)N(C)C)c2)cc(OC)c1OC	-6%
O=S(=O)(NCc1ccco1)c1cccc2cccnc12	17%
Cc1ccc(C(=O)Nc2nnc(-c3ccco3)o2)cc1C	-6%
O=C(CSc1nc2ccccc2c(=O)n1-c1ccccc1)NCC1CCCO1 (configuration not stated)	-10%
Cc1cccc(NC(=O)c2ccc3nccnc3c2)c1C	1%
O=C(c1ccco1)N1CCC2(CCN(Cc3nccs3)CC2)CC1	-1%
COC(=O)c1cnc(SCc2ccc(Cl)cc2)n1C	-6%
Cc1ccc(NC(=O)c2cccc3c(=O)c4c([nH]c23)CCCC4)c(C)c1	-4%
O=C(C[C@H]1C[C@H](C(=O)N2CCOCC2)[C@@]2(CCC3CCCC3)c3[nH]c4cc(-c5ccco5)ccc4c3CCN2C1=O)NCc1ccco1	-24%
COc1ccc(-c2c(C3C4C=CCCC4(C)C(=O)N3Cc3ccccc3)ccc3ccccc23)cc1 (configuration not stated)	-6%
CCOC(=O)c1sc(NC(=S)NC(=O)c2cccc(OC)c2)nc1C	-14%
CCC(C)c1ccc(NC(=O)NCc2cccnc2)cc1 (configuration not stated)	-10%
Cc1cc(Cl)c2oc(C(=O)N3CCN(C(=O)c4ccco4)CC3)c(C)c2c1	-9%

Of the compounds above, these contain a halogen:
SMILES	VDR inh
Fc1ccccc1N1CCN(c2ncnc3[nH]ncc23)CC1	1%
CN(NC(=O)c1ccc(Cl)cc1)c1ncc(C(F)(F)F)cc1Cl	-2%
O=C(N/N=C/c1ccccc1O)C1CC(=O)N(c2ccc(F)cc2)C1 (configuration not stated)	-5%
CCS(=O)(=O)N1CCC(C(=O)c2ccc(Cl)cc2)CC1	-10%
COC(=O)c1cnc(SCc2ccc(Cl)cc2)n1C	-6%
Cc1cc(Cl)c2oc(C(=O)N3CCN(C(=O)c4ccco4)CC3)c(C)c2c1	-9%

Fetched by structure from the list above (six):
SMILES	VDR inh
Cc1cc(Cl)c2oc(C(=O)N3CCN(C(=O)c4ccco4)CC3)c(C)c2c1	-9%
Cc1ccc(NC(=O)c2cccc3c(=O)c4c([nH]c23)CCCC4)c(C)c1	-4%
O=C(CSc1nc2ccccc2c(=O)n1-c1ccccc1)NCC1CCCO1 (configuration not stated)	-10%
O=C(C[C@H]1C[C@H](C(=O)N2CCOCC2)[C@@]2(CCC3CCCC3)c3[nH]c4cc(-c5ccco5)ccc4c3CCN2C1=O)NCc1ccco1	-24%
Cc1cccc(NC(=O)c2ccc3nccnc3c2)c1C	1%
O=C(c1ccco1)N1CCC2(CCN(Cc3nccs3)CC2)CC1	-1%

Further results
SMILES	VDR inh
CC(OC(=O)/C=C/c1ccc2ccccc2n1)C(=O)Nc1ccc(S(N)(=O)=O)cc1 (configuration not stated)	4%
CCC1=Nc2cc(C(=O)NCc3ccccc3OC)ccc2Sc2ccc(Cl)cc21	2%
CCC1CCCCN1CCCNC(=O)CCCNC(=O)Cn1cnc2sc3c(c2c1=O)CCCC3 (configuration not stated)	6%
Cc1c(C)n(Cc2ccccc2)c2ccc(C(=O)NCCCN3CCOCC3)cc12	-4%
Cc1[nH]n(-c2ccccc2)c(=O)c1C=NCC1CCCO1 (configuration not stated)	2%
O=C(CN1CCN(S(=O)(=O)c2ccc(F)cc2)CC1)Nc1ccc(Cl)cn1	2%
Cc1c(NC2(C#N)CCCC2)c(=O)n(-c2ccccc2)n1C	-23%
CCC(C(=O)NN1C(=O)c2ccccc2C1=O)c1ccccc1 (configuration not stated)	-2%
O=[N+]([O-])c1cc([N+](=O)[O-])c(Oc2cc(F)ccc2F)cc1NN1CCCCC1	-10%
COc1cccc2cc(C(=O)NCCc3ccccc3)c(=O)oc12	-22%
CN(C)S(=O)(=O)c1cc(NC(=O)COC(=O)CC2Sc3ccccc3NC2=O)ccc1Cl (configuration not stated)	19%
Cc1ccccc1NC(=O)CN1C(=O)NC2(CCCCC2)C1=O	4%
COC(=O)c1c(C)oc2ccc(NS(=O)(=O)c3cc(OC)ccc3OC)cc12	-1%
COc1ccc(N=C2C(=O)N3c4c(cccc42)C(C)=CC3(C)C)cc1	50µM*
Cc1ccc(-c2nc(CS(=O)(=O)CC(=O)N3CCCCCC3)c(C)o2)cc1	3%
C=C(C)CNC(=S)NNC(=O)CCn1c2ccc(Cl)cc2c2cc(Cl)ccc21	0%
COc1cccc(Nc2ccc(-n3ccnc3)nn2)c1	2%
CCOc1ccc(NC(=O)c2c(NC(=O)Cc3ccccc3)sc3c2CCC(C)C3)cc1 (configuration not stated)	79µM*
C[n+]1ccc(/C=C/c2ccc(Br)cc2)cc1	-7%
CCN(c1ccccc1)S(=O)(=O)c1cccc(C(=O)NCCN2CCOCC2)c1	-15%
Cc1ccc(CCNC(=O)C2CC(c3cc(C(F)(F)F)cc(C(F)(F)F)c3)=NO2)cc1 (configuration not stated)	6%
CCOc1ccc(N2CC(C(=O)Nc3nnc(CC)s3)CC2=O)cc1 (configuration not stated)	-3%
COc1ccc2cc(C(=O)C3CCCN(Cc4cnc(N5CCOCC5)s4)C3)ccc2c1 (configuration not stated)	-5%
Cc1cccc(C(C)C)c1NC(=O)COC(=O)C1CC(=O)N(Cc2ccccc2)C1 (configuration not stated)	-21%
Cc1ccc(OCC(=O)N/N=C\c2ccc(O)c([N+](=O)[O-])c2)c([N+](=O)[O-])c1	-12%
CC(C)(C)NC(=O)C12CCC(C)(c3nc4ccccc4nc31)C2(C)C (configuration not stated)	8%
O=C(Nc1ccccc1N1CCCC1)c1ccc([N+](=O)[O-])o1	32%[activator]
Cc1ccc(Oc2ccccc2NC(=O)CSCC(=O)Nc2cc(C)on2)cc1	-2%
C[N+]1(C)CC[C@H](OC(=O)[C@@](O)(c2ccccc2)C2CCCC2)C1	-6%
COCCn1nnnc1CN(Cc1cc2cc(OC)c(OC)cc2[nH]c1=O)C1CCCC1	-19%
CCN(CC(=O)Nc1ccc2c(c1)OCCO2)C(=O)CCc1ccccc1Cl	4%
CSCCC(NC(=O)COc1ccccc1)C(=O)N(C)CC(=O)Nc1ccc(C)cc1 (configuration not stated)	-3%
Cc1cccc(CC(=O)Nc2cc(=O)n(C)c(=O)n2C)c1	-11%
COc1ccc(S(=O)(=O)c2cn(Cc3ccccc3)c3cc(N4CCCC4)c(F)cc3c2=O)cc1	19%
CCCOc1ccc(/C=N/NC(=O)C(C)Sc2ccccn2)cc1OCC (configuration not stated)	-1%
COc1ccccc1N1CCN(C(C)C(=O)N2CC(C)OC(C)C2)CC1 (configuration not stated)	2%
c1coc(CNc2nc(-c3ccncc3)cs2)c1	-11%
CCc1noc(C)c1C(=O)N1CCOCC1	-1%
COc1cc(-c2[nH]ncc2CN2CCCC2c2nonc2C)cc(OC)c1OC (configuration not stated)	-14%
COc1ccc(C2CC(C(F)(F)F)n3nc(C(=O)NCCN4CCOCC4)cc3N2)cc1 (configuration not stated)	1%
N/C(CN1CCCCC1)=N\S(=O)(=O)c1cc(Cl)cc(Cl)c1	-20%
CC(C)(C)c1ccc(C(=O)Nc2cccc3c(=O)[nH][nH]c(=O)c23)cc1	7%
CCNc1oc(COc2cccc(C)c2)nc1C#N	-1%
O=C(NCc1cccs1)C1CCCN(S(=O)(=O)c2cnc[nH]2)C1 (configuration not stated)	-7%
Cn1cc(C(=O)N2CCN(c3cccc(C(F)(F)F)c3)CC2)c2c3ccccc3n(C)c2c1=O	-6%
CCOC(=O)C1C(=O)Nc2nc(C)nn2C1c1ccccc1 (configuration not stated)	6%
S=C1NC[C@H](Cc2cccc3ccccc23)N1CC1CCCCC1	-6%
CCOc1ccc(OCCC(=O)N(CC(C)C)c2c(N)n(Cc3ccccc3)c(=O)[nH]c2=O)cc1	25%
N[C@H](Cc1ccccc1)C(=O)O	12%
CCOc1ccccc1NC(=O)C1CCN(S(=O)(=O)c2ccc3c(c2)CCCN3C(C)=O)CC1	7%
Cc1cc(C)c(C#N)c(SCC(=O)Nc2ccccc2C(N)=O)n1	-15%
Nc1ccc(N=Nc2ccccc2)c2ccccc12	-1%
Cc1ccc(S(=O)(=O)N/N=C2/CC(c3ccccc3)Oc3ccccc32)cc1[N+](=O)[O-] (configuration not stated)	1%
C(=N/N1CCN(c2ccccc2)CC1)/c1ccncc1	0%
O=C1C(C2=NC(C(=O)O)C3C(=O)N(c4ccc(Cl)cc4)C(=O)C23)=C(O)c2ccccc21 (configuration not stated)	-5%
COc1ccc(/C=N/NC(=O)C2C3CCCCC32C)cc1OC (configuration not stated)	-3%
N#C/C(=C\c1ccco1)C(=O)Nc1ccc(S(N)(=O)=O)cc1	7%
Cc1ccc(NC(=O)N2CCN(C)CC2)cc1NC(=O)N1CCN(C)CC1	10%
CC1CCc2c(sc3ncn(CC(=O)N4CCCCC4)c(=O)c23)C1 (configuration not stated)	?
O=C(COc1ccccc1Cl)NCCC1=CCCCC1	-4%

Additional entries:
SMILES	VDR inh
Cc1c(CC(=O)NCC(=O)NCC(=O)O)c(=O)oc2cc3c(cc12)CCC(C)(C)O3	-20%
CNC(=O)[C@@]1(Cc2ccccc2)C=C[C@@H](C)N1C(C)=O	-21%
O=C(NC1CCCCC1)c1cc(-c2ccccc2O)on1	-5%
O=C(Nc1ccc(N2CCCC2=O)cc1)c1cccc(F)c1	2%
CCCn1nnnc1NCc1ccccc1Cl	-19%
CCN(c1ccc(NC(=O)COC(=O)C2CCN(c3ccc(C(F)(F)F)cn3)CC2)cc1)C(C)C	0%
COC(=O)c1ccc(C(=O)OC)c(NC(=S)N2CCC(C)CC2)c1	15%
COc1cc(C(=O)N/N=C(\C)c2ccc(NC(=O)Cc3ccccc3)cc2)ccc1O	-5%
O=C(NCC(=O)N1CCN(C/C=C/c2ccccc2)CC1)c1ccc(Br)cc1	-2%
CCCCN(C)C(=O)C1CCCN(c2ncnc3onc(C)c23)C1 (configuration not stated)	7%
Cc1cc2oc(=O)cc(CN3CCc4ccccc43)c2cc1Cl	0%
COc1cccc(OCc2cc(C3Nc4ccccc4C(=O)N3c3ccccc3)ccc2OC)c1 (configuration not stated)	-17%
COc1ccc(CC(=O)NCc2nc3cccnc3n2Cc2ccc(C)cc2)cc1	-1%
COc1ccc(NC(=O)c2cccc(S(=O)(=O)N3CCCCC3)c2)c(OC)c1	-13%
COc1ccccc1NS(=O)(=O)c1ccc(C)c(C(=O)NCC(c2ccco2)N(C)C)c1 (configuration not stated)	-11%
Cc1nc2sccn2c(=O)c1S(=O)(=O)Nc1cc(C(F)(F)F)ccc1Cl	2%
Cc1c(CCOC(=O)C23CC4CC(CC(C)(C4)C2)C3)sc[n+]1CC(=O)c1ccccc1	-9%
Brc1ccc2c(c1)C(c1ccc(N3CCOCC3)cc1)=NNC(c1cccs1)=N2	-12%
CCCCOC(=O)c1nnc(-c2ccc(Cl)cc2)o1	15%
C/C(=C\C(=O)c1cccnc1)Nc1ccc(C(=O)O)cc1	7%
CC(NC(=O)/C(C#N)=C/c1cn[nH]c1-c1ccccc1)c1ccccc1 (configuration not stated)	4%
COc1cc(Cl)c(C)cc1NC(=O)C1CCCN(c2ncnc3onc(-c4ccc(F)cc4)c23)C1 (configuration not stated)	7%
S=C(c1c[nH]c2ccc(Br)cc12)N1CCOCC1	6%
O=C(Nc1cccc(C(F)(F)F)c1)C1CCN(c2nnc(-n3cccc3)s2)CC1	7%

Three compounds from above, sorted by their value in VDR inh, rising:
structure,VDR inh
COc1ccc(CC(=O)NCc2nc3cccnc3n2Cc2ccc(C)cc2)cc1,-1%
Cc1nc2sccn2c(=O)c1S(=O)(=O)Nc1cc(C(F)(F)F)ccc1Cl,2%
COc1cc(Cl)c(C)cc1NC(=O)C1CCCN(c2ncnc3onc(-c4ccc(F)cc4)c23)C1 (configuration not stated),7%

(further entries)
SMILES	VDR inh
CC(=O)c1ccc(NC2=C(N3CCOCC3)C(=O)c3ccccc3C2=O)cc1	?
Cc1ccc(S(=O)(=O)CCSc2cccc(C(=O)Nc3ccccc3C(=O)O)c2)cc1	79µM*
CCc1ccccc1N1C(=O)C2CC(C)=C(C)CC2C1=O (configuration not stated)	-2%
COc1ccc(C)cc1NC(=O)c1ccc(N(C)S(C)(=O)=O)cc1	-1%
Cc1ccccc1CN1C(=O)c2ccccc2Sc2ccc(C(=O)N3CCOCC3)cc21	15%
O=C(Cn1cccc1C(=O)c1ccccc1)NCCc1ccccc1	0%
O=C(OCC(=O)N1CCCCC1)c1n[nH]c(=O)c2ccccc12	1%
COc1ccc(NC(=O)C2CCN(S(=O)(=O)c3ccc(OC)c(OC)c3)CC2)c(OC)c1	13%
COc1ccc(N/C=C/C(=O)c2cc(OC)c(OC)c(OC)c2)cc1	5%
CCN(CC)C(=O)C1CCCN(C(=O)Nc2ccccc2)C1 (configuration not stated)	-17%
CC1(C)Cc2c(c(-c3ccco3)nc3sc4c(NCCCO)ncnc4c23)CO1	-21%
CCOC(=O)N1CCN(S(=O)(=O)c2ccc(OC)c(Br)c2)CC1	-20%
CCn1c(-c2csc(-c3ccc(Cl)cc3)n2)n[nH]c1=S	-5%
Cc1c(NC(=O)CN2C(=O)NC3(CCC(C)CC3)C2=O)c(=O)n(-c2ccccc2)n1C (configuration not stated)	-4%

A portion of the library; rates above refer to the full screens.
